# CBX7 AlphaScr: CBX7 chromodomain binding inhibitors, primary screen, biochemical, AlphaScreen; normalised signal (fraction of DMSO) (test concentration not listed); 1.1% of 66,000 active; Chromobox protein homolog 7 (Homo sapiens), O95931; AlphaScreen His6-CBX7 / biotin-H3K27me3 peptide binding; hits give low values; AID 1224903, 2016; in the data active = normalised signal below about 0.5;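 note: 100 nL library stock added to about 20 µL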
# Target sequence (O95931 whole entry, looked up): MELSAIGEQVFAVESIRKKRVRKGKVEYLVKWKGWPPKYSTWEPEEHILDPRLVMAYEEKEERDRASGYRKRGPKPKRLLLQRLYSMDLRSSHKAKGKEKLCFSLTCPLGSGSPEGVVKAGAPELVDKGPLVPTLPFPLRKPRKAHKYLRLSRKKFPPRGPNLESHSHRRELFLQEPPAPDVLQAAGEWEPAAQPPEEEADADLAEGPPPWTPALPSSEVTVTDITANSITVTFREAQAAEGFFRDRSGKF
# CBX7 AlphaScr z-score: recorded beside CBX7 AlphaScr, whose call it bears; z-score; measured here: z-score of CBX7 signal; some inactives read as strong as hits; reference of the scale not given here;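 same signal on another scale; lower means less binding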
# Active calls of the source: *.
# Screens in order – CBX7 AlphaScr, CBX7 AlphaScr z-score
CC1(C)CC(=O)c2cc(C(=O)Nc3ccc4c(c3)C(=O)NC4=O)c(=O)n(-c3ccccc3)c2C1
 : 1, 0.73
COc1ccc(Nc2c(-c3c[nH]c4ccccc34)nc3cnccn23)cc1
 : 1, 0.4
CCOc1ccc(-c2cc(C(=O)NCCCN3CCC(C)CC3)c3ccccc3n2)cc1
 : 1.1, 2.9
Cc1ccccc1-n1c(=O)c2ccccc2n2c(=O)[nH]nc12
 : 1, 0.063
CC1CC2(C)Oc3ccccc3C3OCC1(CO)C(C)C32 (stereo not drawn)
 : 1.1, 0.85
Cc1nc2sc(C(c3cccs3)N3CCOCC3)c(O)n2n1 (stereo not drawn)
 : 1, -0.16
O=C(Nc1ccccn1)C1c2ccccc2C(=O)N2CCc3ccccc3C12 (stereo not drawn)
 : 0.87, -2.2
Nc1ncc(CSc2n[nH]c(-c3ccccc3)n2)s1
 : 1, 0.46
Cc1[nH]c2ccccc2c1CCNC(=O)COc1ccc(F)cc1F
 : 0.91, -2.2
CCOC(=O)c1sc(NC(=O)c2ccc(OCC)cc2)nc1-c1ccccc1
 : 0.99, -0.17
Cc1cc2ccccc2c(=O)n1CC(=O)N1CCCCC1
 : 1.1, 2.2
Cc1cccc(-c2nnc(NC(=O)c3cccc(C(F)(F)F)c3)s2)c1
 : 1.1, 1.2
Cc1ccc(Cc2c(C)nc3nc(SCC(=O)NC4CCCCC4C)nn3c2C)cc1 (stereo not drawn)
 : 1.2, 1.2
CCOC(=O)c1c(NC(=O)COc2ccc(C(C)(C)C)cc2)sc2c1CCCC2
 : 1.4, 0.98
CCCc1cc(C(=O)Nc2cccc(C(F)(F)F)c2)no1
 : 1.1, 3.4
Nc1nonc1-c1nc2ccccc2n1Cc1ccc(Br)cc1
 : 1.1, 1.4
CCN(C(=O)Cn1nc(Cc2ccncc2)c2ccccc2c1=O)c1ccccc1F
 : 1, 0.46
Cc1cc(C(F)(F)F)nc(SCC(=O)Nc2cc(C)on2)n1
 : 1, 0.21
Cc1cc(Nc2ccccc2F)nc2cccc(O)c12
 : 0.69, -8.3
CN(CC(=O)NC1CCCCC1)S(=O)(=O)c1ccc2c(c1)n(C)c(=O)c(=O)n2C
 : 1.2, 1.5
O=C(NCCc1c[nH]c2ccccc12)c1cc2ccccn2n1
 : 1, 0.13
Cn1c(SCC(=O)Nc2ccccc2)nnc1-c1cccnc1
 : 0.96, -0.95
COC(=O)c1c(NC(C)=O)sc(Cc2ccccc2)c1C
 : 1.2, 2
COc1ccc(-c2nc(CSCC(=O)NCCN3CCCC3)c(C)o2)cc1
 : 1.1, 0.51
Cc1ccccc1NC(=O)c1cnc(Nc2nc3ccccc3s2)nc1C
 : 0.94, -1.2
O=C(NCc1ccc(F)cc1)C1C2C=CC3(CN(Cc4ccccc4Cl)C(=O)C13)O2 (stereo not drawn)
 : 1, 1.2
COCCN(CCOC)S(=O)(=O)c1ccc(C(=O)Nc2nc3c(Cl)cccc3s2)cc1
 : 1, 0.11
COc1ccc(Cl)cc1NC(=O)C1CCCN(S(=O)(=O)c2cccnc2)C1 (stereo not drawn)
 : 0.99, -0.22
CCC(C)NC(=O)C1(C)CCC(=O)N1Cc1ccc(OC)cc1OC (stereo not drawn)
 : 0.84, -2.6
COc1cc2c(cc1OC)C(CC(=O)Nc1ccccc1)C(=O)NN=C2C (stereo not drawn)
 : 1.1, 0.56
CCCCCn1c(CNC(=O)c2ccccc2)nc2ccccc21
 : 1, 0.36
CCc1cccc(CC)c1NS(=O)(=O)c1ccc2c(c1)CCN2C(C)=O
 : 0.99, -0.2
COc1ccc(NC(=O)Nc2nnc(-c3ccccc3Cl)s2)cc1
 : 0.97, -0.75
CC1(C)CC(=O)C2=C(C1)NC(=O)CC2c1cccc(OCc2ccccc2)c1 (stereo not drawn)
 : 0.92, -1.1
Cn1cc(C(=O)N2CCN(Cc3ccccc3)CC2)c2c3ccccc3n(C)c2c1=O
 : 0.98, -0.49
COc1cc(Cl)c(C)cc1NC(=O)CC1Oc2ccccc2NC1=O (stereo not drawn)
 : 0.91, -0.51
CCN(CC)CCn1c(=N)n(CC(O)COc2cccc(C)c2)c2ccccc21 (stereo not drawn)
 : 1, 0.058
O=C(c1ccc2c(c1)N(Cc1ccc(Cl)cc1)C(=O)c1ccccc1S2=O)N1CCCCCC1 (stereo not drawn)
 : 0.83, -3.1
NC(CCc1nc2ccccc2[nH]1)C(=O)O (stereo not drawn)
 : 0.84, -2.9
CCOC(=O)c1cnc2ccc(C)cc2c1Nc1cccc(C(F)(F)F)c1
 : 1.1, 2
Cc1ccn2c(=O)c(C(=O)Nc3cccc(C(F)(F)F)c3)cnc2c1
 : 1.1, 2.3
CCCSc1nnc(Cc2cc(=O)[nH]c(=O)[nH]2)n1-c1cccc(C)c1
 : 1.1, 0.28
COc1ccccc1NC(=O)c1cn(CC(C)C)c(=O)c2cc(OC)c(OC)cc12
 : 1.1, 0.5
O=C(O)c1c(Nc2nnc(-c3ccncc3)s2)sc2c1CCCC2
 : 1.1, 0.98
Cc1ccc(NC2c3ccccc3C(=O)N2c2cccnc2)c(C)c1 (stereo not drawn)
 : 0.87, -1.7
Cc1ccn2c(Nc3ccccc3C)c(-c3ccsc3)nc2c1
 : 0.99, -0.013
Cc1ccc(S(=O)(=O)N2CCC(C(=O)Nc3ccc(F)cc3)CC2)cc1
 : 1.1, 2.7
Cc1ccc(-c2nc(CS(=O)(=O)CC(=O)NC3CCCCCC3)c(C)o2)cc1
 : 1, 0.043
COCCNC(=O)C1=CCN(S(=O)(=O)c2ccc(F)cc2)CC1
 : 1, -0.11
O=C(c1ccc2c(=O)n3c(nc2c1)CCCCC3)N1CCN(c2cccc(Cl)c2)CC1
 : 0.96, -1.3
O=C1CC(Cc2ccc(Cl)cc2)C(=O)N1c1cccc(Cl)c1 (stereo not drawn)
 : 1.1, 1.8
Cc1nc(C)c(C(=O)Nc2ccccc2Cl)o1
 : 0.97, -0.63
CC1CCC(NC(=O)Cn2nc(-c3ccccc3)c3cc(Cl)ccc32)CC1 (stereo not drawn)
 : 1, 0.32
Cc1ccc(-c2nnc(Nc3ccc(O)cc3)c3ccccc23)cc1S(=O)(=O)NCc1ccccn1
 : 0.95, -0.22
Cc1ccc(N2C(=O)c3ccccc3C2Nc2nc(C)cs2)nc1 (stereo not drawn)
 : 0.91, -1.2
Cc1cccn2c(Nc3ccc4c(c3)OCCO4)c(-c3ccc(N(C)C)cc3)nc12
 : 0.41*, -22*
CCOC(=O)N1CCC(Nc2c(NCc3ccc(N(C)C)cc3)c(=O)c2=O)CC1
 : 0.98, -0.93
Cc1ccc2c(c1)N(CCCC(=O)NCCC(C)C)C(=O)CO2
 : 1, 0.38
Cc1cccc(NC(=O)Cn2c(Cc3ccccc3)nc3sc4c(c3c2=O)CCCC4)c1
 : 0.95, -0.85
CCN(CC)CCNC(=O)Cn1cnc2sc(C)c(S(=O)(=O)N3CCN(C)CC3)c2c1=O
 : 1.1, 0.92

# (further entries)
Compound,CBX7 AlphaScr,CBX7 AlphaScr z-score
CCOC(=O)c1sc2ncn(CC(=O)NC3CCCCC3)c(=O)c2c1C,1,0.44
C=C(C)c1cccc(C(C)(C)NC(=O)N2CCN(c3ccccn3)CC2)c1,0.94,-1.2
COc1ccc(-c2nn3cc(-c4ccc(OC)c(OC)c4)c4c3n2CCCC4)cc1,0.93,-3.7
Cc1nc2nc(SCC(=O)NC3CCCC3)nn2c(C)c1Cc1ccccc1Cl,0.8,-0.24
Cc1oc(-c2ccc(Cl)cc2)nc1CN1CCCC(C(=O)NC2CCCCC2C)C1 (stereo not drawn),1,1.2
O=C(O)c1ccc2[nH]c(=O)c(Cc3cccc(Oc4ccccc4)c3)nc2c1,1.2,1.9
CC(C)CCNC(=O)C1CCN(c2nnc(-n3cccc3)s2)CC1,1.1,2.1
O=C(Nc1nc(-c2ccccc2)ns1)c1ccc2ncsc2c1,0.78,-2.4
COc1ccccc1N1CCN(C(=O)C2(S(=O)(=O)c3ccc(Cl)cc3)CC2)CC1,0.94,-1.1
COc1ccc(-c2noc(CC(=O)Nc3ccccc3)c2-c2ccc(OC)cc2)cc1,0.67,-1.4

# Looked up above:
# Result of O=C(O)c1ccc2[nH]c(=O)c(Cc3cccc(Oc4ccccc4)c3)nc2c1 in CBX7 AlphaScr z-score: 1.9
# Result of Cc1nc2nc(SCC(=O)NC3CCCC3)nn2c(C)c1Cc1ccccc1Cl in CBX7 AlphaScr: 0.8

# Following part.
Compound,CBX7 AlphaScr,CBX7 AlphaScr z-score
Cn1c(CNc2ccc(F)cc2)nc2ccccc21,1,0.12
Cc1ccccc1-n1cc(-c2ccccc2)nc1SCC(=O)Nc1ccccc1Cl,0.84,-5.4
COc1cccc(C2CC(c3ccccc3C)n3nnnc3N2)c1 (stereo not drawn),0.8,-2.8
CC(C)CCN1CC(C(=O)NCc2ccc(F)cc2Cl)CC1=O (stereo not drawn),1,0.32
Cc1ccc(-c2noc(COc3cc(C)cc(C)c3C)n2)cc1,1.2,1.9
O=C1CCc2cc(S(=O)(=O)N3CCC(C(=O)NC4CCCc5ccccc54)CC3)ccc2N1 (stereo not drawn),0.96,-1
COc1cc(OC)cc(C(=O)Nc2nnc(C3CCCCC3)s2)c1,0.99,-0.13
O=c1cc(N2CCN(c3ccc(F)cc3)CC2)[nH]c(=O)n1-c1ccccc1Cl,0.95,-1
O=C(O)Cc1sc(-c2ccc(Br)cc2)nc1-c1ccc(Br)cc1,1.1,0.44
COc1ccc(-n2ccnc2SCC(=O)Nc2ccc(Br)cc2)cc1,0.92,-0.1
CCOc1ccc(NC(=O)c2cc3c(n(-c4ccc(C)cc4)c2=O)CCCC3=O)cc1,1.1,0.68
CC(Oc1ccccc1)C(=O)Nc1ccc(S(=O)(=O)Nc2ncccn2)cc1 (stereo not drawn),1.1,0.78
CC1CCN(c2c(NCc3ccc(C(=O)NC(C)c4ccccc4)cc3)c(=O)c2=O)CC1 (stereo not drawn),1.1,2.3
Cc1oc(-c2ccc(Cl)cc2)nc1CN1CCC(C(=O)NC(C)C)CC1,0.83,-0.23
CCCCN(CCCNC(=O)c1csc2c1CCC(C)C2)Cc1ccccc1 (stereo not drawn),1,0.88
COCC(C)NC(=O)C1CC(c2ccc(OC)cc2)=NO1 (stereo not drawn),1.2,2.2
COc1cccc(NC(=O)CN(C)S(=O)(=O)c2cccc3cccnc23)c1,0.89,-1.3
CCOc1ccc(N2C(=O)Cn3cccc3C2C(=O)NC2CCCCC2C)cc1 (stereo not drawn),0.97,-0.83
CCc1nc(-c2ccccc2)c2ccccn12,1,0.41
COc1cccc(NC(=O)c2sc3ncn(CC(=O)N4CCCCC4)c(=O)c3c2C)c1,0.99,-0.1
COc1ccc(NC(=O)c2cc(-c3ccc(Cl)c(Cl)c3)on2)cc1,0.99,-0.12
Cc1ccccc1-n1cc(-c2ccc(Cl)cc2)[nH]c1=O,0.91,-2.8
COc1ccc(-c2nnc(NC(=O)c3ccc(F)cc3)s2)cc1,0.92,-0.19
CCOc1ccccc1CNC(=O)c1cc(=O)[nH]c2ccc(S(=O)(=O)N3CCCCC3)cc12,0.98,-0.22
Cc1ccc(C)c(CN2C(=O)CSc3ccc(C(=O)NC4CC4)cc32)c1,0.98,-0.64
COc1ccccc1NC(=O)c1sc2ncn(CC(=O)N3CCC(C)CC3)c(=O)c2c1C,1,0.24
COc1ccc(NC(=O)CCC(=O)Nc2ccc3nc(N4CCOCC4)cc(C)c3c2)cc1Cl,1.1,1.6
Cc1cccc(-c2nc(CSCC(=O)Nc3ccccc3Br)c(C)o2)c1,0.97,-0.37
O=C(c1ccc2c(c1)N(Cc1ccc(Cl)cc1)CCS2)N1CCC2(CC1)OCCO2,0.92,-1.3
CCOC(=O)c1cc(-c2ccccc2)n(CCC(=O)Nc2ccc(C(C)C)cc2)c1C,0.92,-1.4
Cc1ccc(Cl)cc1NC1c2ccccc2C(=O)N1c1ccccc1C (stereo not drawn),0.92,-1.4
Cc1cc(N2CCN(C)CC2)nc2ccc(NC(=O)c3cccc(F)c3)cc12,0.93,-2.7
Cc1ccc(Nc2nc(-c3ccc(-c4ccccc4)cc3)cs2)cc1C,0.59,-2.7
CCn1cnc2cc(NS(=O)(=O)c3ccc(C)cc3)ccc21,1.1,2
CCN(CCCNC(=O)Cc1cn(C)c2ccccc12)c1cccc(C)c1,0.32*,-15*
O=C(c1c[nH]c2ccc(S(=O)(=O)Nc3ccccc3F)cc2c1=O)N1CCCCCC1,1,-0.087
COc1cc(OC)c(NC(=O)CCc2nc(-c3ccc(C)cc3)no2)cc1Cl,1,0.58
CC(NC(=O)C1CC(=O)N(c2ccc(F)c(Cl)c2)C1)c1ccccc1 (stereo not drawn),1,0.028
O=C(Nc1nnc(CCS(=O)(=O)c2ccc(Br)cc2)s1)c1ccccc1,1.1,2.9
COc1ccc2c(c1)c(C)c(C)n2CCc1ccc(C)nc1,0.95,-0.53

# Reprinted from the results shown (13 entries):
Compound,CBX7 AlphaScr,CBX7 AlphaScr z-score
Cc1ccc(C)c(CN2C(=O)CSc3ccc(C(=O)NC4CC4)cc32)c1,0.98,-0.64
COc1ccccc1NC(=O)c1sc2ncn(CC(=O)N3CCC(C)CC3)c(=O)c2c1C,1,0.24
COc1ccc(NC(=O)CCC(=O)Nc2ccc3nc(N4CCOCC4)cc(C)c3c2)cc1Cl,1.1,1.6
Cc1cccc(-c2nc(CSCC(=O)Nc3ccccc3Br)c(C)o2)c1,0.97,-0.37
O=C(c1ccc2c(c1)N(Cc1ccc(Cl)cc1)CCS2)N1CCC2(CC1)OCCO2,0.92,-1.3
CCOC(=O)c1cc(-c2ccccc2)n(CCC(=O)Nc2ccc(C(C)C)cc2)c1C,0.92,-1.4
Cc1ccc(Cl)cc1NC1c2ccccc2C(=O)N1c1ccccc1C (stereo not drawn),0.92,-1.4
Cc1cc(N2CCN(C)CC2)nc2ccc(NC(=O)c3cccc(F)c3)cc12,0.93,-2.7
Cc1ccc(Nc2nc(-c3ccc(-c4ccccc4)cc3)cs2)cc1C,0.59,-2.7
CCn1cnc2cc(NS(=O)(=O)c3ccc(C)cc3)ccc21,1.1,2
CCN(CCCNC(=O)Cc1cn(C)c2ccccc12)c1cccc(C)c1,0.32*,-15*
O=C(c1c[nH]c2ccc(S(=O)(=O)Nc3ccccc3F)cc2c1=O)N1CCCCCC1,1,-0.087
COc1cc(OC)c(NC(=O)CCc2nc(-c3ccc(C)cc3)no2)cc1Cl,1,0.58

# The list is partial; count on the stated rates, not on these rows.
